Six1-Eya2 inh: Six1/Eya2 interaction inhibition | Q15475+O00167 | AlphaScreen GST-Six1/His-Eya2 binding, biochemical; stronger effect = lower value; control for the full effect not named in the record | activity change, % (concentration not given with the values) | hit rate 0.56% among 360,000 | AID 651725; in the data active = activity change below about -65%; inconclusive = about -30% to -65%; inactive = above about -30%; further: on the % scale 0 is the no-effect control and ±100 the full control effect
Target sequence (O00167 whole entry, looked up): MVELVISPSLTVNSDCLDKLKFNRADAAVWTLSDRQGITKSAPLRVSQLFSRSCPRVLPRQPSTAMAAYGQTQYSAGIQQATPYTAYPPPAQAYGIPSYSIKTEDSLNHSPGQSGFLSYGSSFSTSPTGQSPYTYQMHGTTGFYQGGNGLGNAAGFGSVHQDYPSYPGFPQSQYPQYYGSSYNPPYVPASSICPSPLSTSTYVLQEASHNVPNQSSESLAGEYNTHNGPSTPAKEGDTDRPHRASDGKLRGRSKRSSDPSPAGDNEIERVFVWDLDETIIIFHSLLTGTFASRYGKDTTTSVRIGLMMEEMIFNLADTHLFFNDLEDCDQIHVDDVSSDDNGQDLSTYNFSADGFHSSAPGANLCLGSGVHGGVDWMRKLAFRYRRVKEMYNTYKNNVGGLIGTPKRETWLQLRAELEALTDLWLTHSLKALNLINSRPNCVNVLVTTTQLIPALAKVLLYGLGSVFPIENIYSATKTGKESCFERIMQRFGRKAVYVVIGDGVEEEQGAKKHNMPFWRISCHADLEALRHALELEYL
Target sequence (Q15475 whole entry, looked up): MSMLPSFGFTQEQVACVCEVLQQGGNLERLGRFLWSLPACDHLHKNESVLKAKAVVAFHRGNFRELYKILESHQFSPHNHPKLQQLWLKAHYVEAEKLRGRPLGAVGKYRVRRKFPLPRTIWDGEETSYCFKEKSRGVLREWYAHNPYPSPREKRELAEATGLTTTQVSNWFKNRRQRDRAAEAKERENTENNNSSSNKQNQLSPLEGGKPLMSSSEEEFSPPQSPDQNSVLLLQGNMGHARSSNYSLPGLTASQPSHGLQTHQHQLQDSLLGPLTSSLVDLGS
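Homogeneous AlphaScreen proximity assay pairing GST-Six1 with His-tagged Eya2 (added as 5X mix: 250 nM and 500 nM) in 50 mM Tris pH 8.0, 300 mM NaCl, 1 mM TCEP. Glutathione donor and nickel acceptor beads; 1 h, 37 °C, dark.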
CtBP-E1A inh: blocks the CtBP interaction with E1A; AlphaScreen GST-E1A/His-CtBP binding, 1536-well; stronger effect = lower value; control for the full effect not named in the record; activity change, % (test concentration not listed); hit rate 0.49% among 340,000; in the data active means activity change below about -65%; inconclusive means about -30% to -65%; inactive means above about -30%; further: on the % scale 0 is the no-effect control and ±100 the full control effect; compound concentration not given in the record
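GST-E1A and His-tagged CtBP (125 nM each as 5X stock) were preincubated with pin-transferred compound for 2 h at 37 °C in the dark, then glutathione donor and nickel acceptor beads were added for 1 h before AlphaScreen reading.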
TRPV1 PAM: human TRPV1 potentiation | potentiation, % at 8.33 µM | hit rate 0.02% among 320,000 | AID 540277 | TRPV1-expressing cells, Fluo-8 calcium influx, capsaicin EC20 potentiation; host cell line not named in the record; control for the full effect not named in the record | Q8NER1; active means potentiation above 80%; inconclusive means 30% to 80%; inactive means below 30%; further: 0% is about no effect
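TRPV1-expressing cells were cultured overnight at 35.5C and loaded with Fluo-8 calcium dye for 40 to 90 min at room temperature. After a 10 s baseline, compound was added and calcium influx was read kinetically for 3 min (ex 480/em 520 nm).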
D2 PAM: potentiates the human D2 dopamine receptor allosterically; hit rate 0.23% among 360,000; AID 624464; DiscoveRx D2 beta-arrestin cells, luminescence, 90 min; 100% = 57 uM dopamine signal; potentiation, % (concentration not given with the values); P14416; active = potentiation of 50% or more; inconclusive = 30% to 50%; inactive = 30% or less;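 further: compound concentration not given in the record; tested on top of an EC20 dose of dopamine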
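PathHunter beta-arrestin assay in DiscoveRx D2 cells. Compounds were added with an EC20 of dopamine (50 nM final) for 90 min at 37 deg C. Luminescence was read 1 h after detection reagent, with 57 uM dopamine as the EC100 control.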
Sfp PPTase inh: blocks B. subtilis Sfp PPTase activity; Q9F4F7; Biochemical Sfp PPTase activity, qHTS; Potency, µM, for the others: max response, negative = inhibition, usual class: inhibitors; hit rate 3.5% among 310,000; active means well fitted inhibition curve with a large enough effect; inconclusive means small, poorly fitted or top-dose-only effect, or another doubt; inactive means no such curve, though single readings can be large or run the other way;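 further: the enzyme is Sfp with the accession as filed and its product quenches rhodamine fluorescence; potency means the concentration at half of the fitted maximal effect; 0% = enzyme reaction without inhibitor and -100% = no enzyme wells; top concentration of the series not given in the record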
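Fluorescence-quenching assay with 15 nM Sfp, 5 uM rhodamine-CoA and 12.5 uM BHQ-2-labelled ybbR peptide in pH 7.6 Hepes/MgCl2 buffer. Enzyme was pre-incubated with compound for 15 min at room temperature. Rate was taken from the 30-min fluorescence change (525/598 nm).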
D2 ag: human D2 receptor agonism in beta-arrestin assay | P14416 | DiscoveRx PathHunter D2 beta-arrestin, luminescence, 90 min; 100% = 57 uM dopamine signal | activation, % (no concentration beside the values) | hit rate 0.084% among 360,000; in the data active = activation above about 40%; inconclusive = about 15% to 40%; inactive = below about 15%; further: compound concentration not given in the record; the text of the record calls up to 30% inactive
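Agonist mode: compounds alone added to overnight-plated D2 PathHunter cells for 90 min at 37 C, with 57 uM final dopamine (EC100) defining full response. Beta-arrestin recruitment detected by chemiluminescent reagent, read after 1 h at ambient temperature.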
PINK1 modulator: modulators of PINK1 expression; PINK1 immunofluorescence, high-content cytometry, 24 h; hit rate 0.2% among 410,000; Potency, µM (titrated, usually from 76.6 µM), for inactives: at the highest dose activation (PINK1 increase), actives largely listed as activators; active = well fitted activation curve with a large enough effect; inconclusive = small, poorly fitted or top-dose-only effect; inactive = flat fitted curve, though single readings scatter; cell line not stated here;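 further: potency means the concentration at half of the fitted maximal effect; % of control where 0% means no effect; nearly all actives have a fitted effect of over 65% in size; a mitochondrial uncoupler was the plate control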
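Compound titrations (5 concentrations, 24 h) on a stable cell line; DMSO and CCCP controls. Endpoint: fixed-cell PINK1 immunofluorescence with mitochondrial, cell and nuclear markers, scanned by microplate cytometer.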
* = called active by the depositor; ? = inconclusive; / = no result given; & = joins results of further samples; ! = not active in a repeat; [ ] = dose if it differs, or a comment.

SMILES | Six1-Eya2 inh | CtBP-E1A inh | TRPV1 PAM | D2 PAM | Sfp PPTase inh | D2 ag | PINK1 modulator
COc1cc(N2CCOCC2)ccc1/C=C1\C(=O)NC(=O)N(C2CCCCC2)C1=O | -1 | -4 | 8 | -20 | 10% | -1.6 | -1.3%
Cc1cc(C=C2C(=O)N(C)C(=S)N(C)C2=O)c(C)n1-c1cccnc1 | -24 | -3 | 2 | 19 | -2% | 2.6 | 7.5%
CN(Cc1c[nH]c2ccccc12)C1CCCCC1 | -4 | -1 | 4 | -6 | 8% | -4.4 | 4.7%
COc1ccc2c(c1)c(C(=O)C(C)N1CCCCC1)c(C)n2C (configuration not stated) | 3 | 9 | -16 | -7 | -3% | -2.8 | -0.4%
O=C(COc1ccccc1F)N1CCN(CCN2C(=O)c3cccc4cccc(c34)C2=O)CC1 | 2 | 9 | -6 | -3 | 14% | 4.0 | 1.5%
C#CCOc1ccc2c(c1)c(C(C)=O)c(C)n2Cc1ccccc1 | -3 | -3 | -11 | 20 | 2% | 11 | 2.5%
CCC(=NCCCn1ccnc1)c1c(O)n(Cc2ccccc2)c(=O)[nH]c1=O | -15 | -9 | -10 | -5 | 25% | -4.7 | -3.2%
CC12CCC3C(CCC4C/C(=N/O)CCC43C)C1CCC2O (configuration not stated) | -1 | -4 | 5 | -7 | ? | -2.1 | 1.4%
COc1ccc(C2NCCc3[nH]cnc32)cc1 (configuration not stated) | -8 | -7 | 2 | -8 | 3% | 0.1 | 1.1%
CC(=O)c1cccc(NC(=O)N2C[C@H]3C[C@@H](C2)c2cccc(=O)n2C3)c1 | 5 | 9 | 4 | -16 | 23% | -4.8 | 0.3%
O=[N+]([O-])c1cc(Cl)c(O)c(-[n+]2c(-c3ccccc3)cc(-c3ccccc3)cc2-c2ccccc2)c1 | -25 | -10 | 5 | -21 | -5% | -8.9 | 1.2%
CN1CCC(=O)N(CCN=[N+]=[N-])CC1 | -4 | 9 | 10 | -6 | 18% | -0.4 | 0.3%
COc1ccc(OCC(=O)N2CCN(Cc3ccc(SC)cc3)CC2)cc1 | -21 | 1 | -3 | 0 | 13% | -1.5 | -1.0%&0.1%
Clc1ccc2c(c1)C(OC1CN3CCC1CC3)c1ccccc1CS2 (configuration not stated) | -4 | 0 | 4 | -46 | -7% | -11 | -1.7%
Cc1cccc(NP(=O)(Oc2ccccc2F)Oc2ccccc2F)c1 | -2 | -11 | 18 | 2 | 18% | 8.8 | ?
CCCCC1C(=O)NC(=S)N(C)C1=O (configuration not stated) | -2 | 13 | / | -10 | / | -0.3 | -1.1%
CCc1nc2ccc(N3CCN(C)CC3)cc2nc1CC | 21 | 24 | -9 | 6 | 0% | -6.2 | 1.6%
COC(=O)C1=C(c2ccc(Cl)c(C(F)(F)F)c2)C[C@@H]2CC[C@H]1N2C(=O)NC1CCCCC1 | -4 | -3 | -21 | -10 | / | 3.0 | ?
CC(C)c1cccc(O)c(=O)c1 | -17 | -5 | 16 | -3 | 56µM*! | -5.5 | 4.8%
Cc1ccc(NS(=O)(=O)c2ccc(OCC(=O)N3CCN(C)CC3)cc2)cc1 | 5 | -3 | 3 | 2 | -1% | -3.0 | 0.2%
CCN(CC)c1ccc(N=Cc2c(O)n(-c3ccccc3)c(=O)[nH]c2=O)cc1 | -6 | / | 26 | -5 | 50µM* | -8.2 | 2.6%
CC(OC(=O)c1cn(C)c2ccccc12)C(=O)N(C)c1ccccc1 (configuration not stated) | -6 | -1 | 6 | 6 | / | -3.3 | 0.0%
C#CCOCOCC#CCN(CC)CC | 0 | 0 | ? | -3 | 10% | 3.6 | -3.3%
Oc1ccc(/C=N/NP(=S)(c2ccccc2)c2ccccc2)cc1 | 2 | -7 | -5 | -4 | ? | -1.0 | -2.6%
S=C(c1ccc(Cl)cc1)N1CCOCC1 | 3 | 6 | 2 | 6 | 40µM* | 0.4 | -0.4%[38.3 µM]
O=P1(c2ccccc2)CC=CC1 | 5 | 3 | / | -1 | / | -3.7 | -0.1%
CCOC(=O)c1[nH]c(C)c(C(=O)N2CCC3(CC2)OCCO3)c1C | 1 | -3 | -16 | -15 | 14% | -3.1 | 5.7%[38.3 µM]
Nc1c(Cl)cc([N+](=O)[O-])cc1Cl | 0 | 1 | 1 | -1 | / | 0.6 | -0.9%
O=[N+]([O-])c1ccc(N2CCCNCC2)c2ncccc12 | -16 | ? | / | -14 | -4% | -1.3 | 2.0%
COc1ccc(-c2nc3ccc(Br)cn3c2CC(=O)N2CCCC2)cc1OC | -9 | 5 | / | / | / | / | 1.2%
CC(C)C12CN3CCN(CC(C3)/C1=N\O)C2 | 6 | 4 | -2 | -10 | 5% | -0.3 | 4.5%[38.3 µM]
O=c1c2ccccc2[nH]c(=S)n1-c1cccnc1 | -2 | 9 | / | -6 | -6% | -4.4 | 1.4%
Cc1cccc(CCNCc2cc3cc(C)cc(C)c3[nH]c2=O)c1 | -4 | -1 | 11 | -1 | -8% | -3.1 | 1.9%
CN1[C@H]2CC[C@@H]1C(C(=O)N1CCOCC1)=C(O)C2 | 2 | 3 | -3 | -8 | / | -3.8 | 0.0%
CN1CCC(N(C)c2nc(-c3ccc([N+](=O)[O-])cc3)nc3ccccc23)CC1 | -18 | 20 | / | -51 | -25% | -2.4 | -6.6%
CN(C)CP(=O)(O)CN(C)C=O | -9 | 2 | 3 | -16 | 16% | 1.3 | 1.3%
c1cncc(CNC2CCCCC2)c1 | -2 | 4 | 6 | -6 | -1% | 0.6 | 1.7%
CCCCOCCCn1c(N)c(C(=O)OC(C)COC)c2nc3ccccc3nc21 (configuration not stated) | -3 | -3 | 6 | -29 | 2% | -8.1 | 0.4%
Cc1ccccc1N1C(=O)NC(=O)/C(=C\c2cc(Br)c(N3CCOCC3)o2)C1=O | 5 | 9 | -4 | 1 | -17% | -2.5 | ?
CC(C)N1CCN(Cc2ccc3c(c2)OCCO3)CC1CCO (configuration not stated) | 5 | 3 | 0 | -18 | 8% | -5.2 | 0.0%

Sorted by SMILES length (smallest number first): some entries from above.
SMILES | Six1-Eya2 inh | CtBP-E1A inh | TRPV1 PAM | D2 PAM | Sfp PPTase inh | D2 ag | PINK1 modulator
O=c1c2ccccc2[nH]c(=S)n1-c1cccnc1 | -2 | 9 | / | -6 | -6% | -4.4 | 1.4%
O=[N+]([O-])c1ccc(N2CCCNCC2)c2ncccc12 | -16 | ? | / | -14 | -4% | -1.3 | 2.0%
Oc1ccc(/C=N/NP(=S)(c2ccccc2)c2ccccc2)cc1 | 2 | -7 | -5 | -4 | ? | -1.0 | -2.6%
CCOC(=O)c1[nH]c(C)c(C(=O)N2CCC3(CC2)OCCO3)c1C | 1 | -3 | -16 | -15 | 14% | -3.1 | 5.7%[38.3 µM]
CCN(CC)c1ccc(N=Cc2c(O)n(-c3ccccc3)c(=O)[nH]c2=O)cc1 | -6 | / | 26 | -5 | 50µM* | -8.2 | 2.6%

More results.
SMILES | Six1-Eya2 inh | CtBP-E1A inh | TRPV1 PAM | D2 PAM | Sfp PPTase inh | D2 ag | PINK1 modulator
Cc1cccc(-n2c(-c3ccco3)nc3ccccc3c2=O)n1 | 4 | 13 | 4 | -2 | 20% | -4.0 | -1.1%
CCN(CC)N=O | 0 | -21 | 3 | -4 | / | 2.5 | 0.9%
COC(=O)C1=C(c2ccc(-c3ccccc3)c(F)c2)C[C@@H]2CC[C@H]1N2C(=O)NCCOc1ccccc1 | -5 | ? | 6 | -14 | / | -5.0 | -0.9%
CCCCCn1c(=O)c(C(=O)Nc2ccccc2N)c(O)c2ccccc21 | 0 | / | 2 | -2 | -4% | -1.9 | 9.0%
COC(=O)C1=C(c2ccc(F)cc2OCc2ccccc2)C[C@@H]2CC[C@H]1N2C(=O)NCCCc1ccccc1 | -14 | -8 | -8 | -9 | / | 5.1 | 0.0%
Cn1cc(C(=O)OCC(=O)Nc2ccccc2Cl)c2ccccc21 | 4 | 9 | -5 | -13 | / | -0.2 | 12%
Cc1cccc(NC(=O)c2cccc(NS(=O)(=O)c3ccc(Cl)cc3)c2)c1 | 16 | 8 | 4 | 3 | 36%[activator] | -2.9 | 2.2%
CCC(C(=O)Nc1ccc(Cl)cc1)N1CCCC1=O (configuration not stated) | 1 | -6 | / | -10 | / | -4.1 | 0.8%
COc1ccc(C(CNC(=O)Cc2ccc(Cl)c(Cl)c2)N2CCCCC2)cc1 (configuration not stated) | -4 | -3 | -18 | -37 | 4% | -8.4 | 0.8%
Brc1ccc2[nH]cc(/C=N/N3CCCCC3)c2c1 | -19 | -8 | 7 | -21 | -4% | -5.4 | 5.0%
CCCCn1c(=O)c(C(=O)NCc2ccccc2)c(O)c2ccccc21 | 14 | / | 22 | 5 | -4% | -5.5 | 25%
O=C1NC(=O)C(=CN2CCc3ccccc32)C(=O)N1 | -3 | -9 | 16 | 12 | -29% | 7.6 | 12%
Cc1cc(OCC(=O)N[C@@H](Cc2ccccc2)C(=O)O)c2c3c(c(=O)oc2c1)CCC3 | -3 | -8 | 0 | -20 | 23% | -2.2 | 2.0%
CCOc1cc(/C=C2/C(=O)NC(=O)N(c3ccc(CC)cc3)C2=O)ccc1OC(=O)c1cccs1 | -13 | 24 | 8 | -15 | 79µM* | -2.5 | 2.1%
Cn1c(O)c(C=NCCOc2ccc(Cl)cc2)c(=O)n(C)c1=O | 4 | 4 | 4 | -18 | 16% | 0.2 | 0.4%
CCCCCCN1CCN(c2ccccc2Cl)CC1 | 9 | / | 3 | -11 | -15% | 1.7 | 4.6%
CC(=NCC1CCCO1)c1c(O)n(C2CCCCC2)c(=O)[nH]c1=O (configuration not stated) | -5 | / | 10 | 7 | 10% | 4.4 | -0.2%
CCOC(=O)N(c1ccccc1)P1(=S)OCC(C)O1 (configuration not stated) | 6 | 5 | -24 | 5 | 8% | 0.9 | 0.1%[38.3 µM]
c1ccc(CN2CCNCC2)nc1 | -25 | -4 | 3 | -12 | -5% | -0.8 | -1.6%
CSCCC(c1nnnn1-c1ccc2c(c1)OCCO2)N1CCC2(CC1)C(=O)NCN2c1ccccc1 (configuration not stated) | -26 | -20 | / | 7 | / | -1.5 | 0.8%
COC(=O)C(O)(c1ccc(N=Cc2ccccc2O)c(C)c1)C(F)(F)F (configuration not stated) | 7 | -3 | -2 | -6 | 27% | 0.1 | 1.4%

Bioassay records (PubChem BioAssay)

Not all compounds are listed, so the mix of outcomes need not match the whole.
